CtBP-E1A inh – inhibitors of CtBP/E1A interaction; AlphaScreen GST-E1A/His-CtBP binding, 1536-well; stronger effect = lower value; control for the full effect not named in the record; activity change, % (no concentration beside the values); 340,000 tested, 0.49% active; AID 651724; in the data active means activity change below about -65%; inconclusive means about -30% to -65%; inactive means above about -30%; note: % is set by controls: 0 for no effect and ±100 for the full control effect; compound concentration not given in the record
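GST-E1A and His-tagged CtBP (125 nM each as 5X stock) were preincubated with pin-transferred compound for 2 h at 37 °C in the dark, then glutathione donor and nickel acceptor beads were added for 1 h before AlphaScreen reading.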
D2 ag – activates the human D2 dopamine receptor. DiscoveRx PathHunter D2 beta-arrestin, luminescence, 90 min; 100% = 57 uM dopamine signal. activation, % (test concentration not listed). 360,000 tested, 0.084% active. AID 624465; in the data active = activation above about 40%; inconclusive = about 15% to 40%; inactive = below about 15%; note: compound concentration not given in the record; the text of the record calls up to 30% inactive
Target sequence (P14416 whole entry, looked up): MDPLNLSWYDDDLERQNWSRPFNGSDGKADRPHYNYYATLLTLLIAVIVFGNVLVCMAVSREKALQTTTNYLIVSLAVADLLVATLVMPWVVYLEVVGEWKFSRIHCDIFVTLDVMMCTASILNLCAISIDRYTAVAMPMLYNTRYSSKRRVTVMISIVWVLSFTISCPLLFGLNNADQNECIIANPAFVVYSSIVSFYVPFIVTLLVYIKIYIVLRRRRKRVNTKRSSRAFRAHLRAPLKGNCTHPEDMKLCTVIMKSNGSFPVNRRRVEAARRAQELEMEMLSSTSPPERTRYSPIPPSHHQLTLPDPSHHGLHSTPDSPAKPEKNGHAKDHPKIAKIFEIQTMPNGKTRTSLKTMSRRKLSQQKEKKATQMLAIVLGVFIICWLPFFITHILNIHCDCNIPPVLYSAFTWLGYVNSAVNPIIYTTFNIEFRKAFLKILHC
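DiscoveRx PathHunter D2 beta-arrestin cells (2,100/well) attached overnight, then compound-stimulated 90 min at 37 C in HBSS/10 mM HEPES/0.1% Tween-20 buffer; beta-galactosidase complementation read by luminescence after 1 h at ambient temperature. Dopamine 57 uM final (EC100) as control.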
TRPML1 ag – agonists of human TRPML1 channel; 410,000 tested, 0.12% active; TRPML1-expressing cells, Ca2+ dye fluorescence, FDSS; host cell line not named in the record; reference of the full effect not given here; Q9GZU1; activation, % (test concentration not listed); AID 624414; in the data active = activation above about 50%; inconclusive = about 30% to 50%; inactive = below about 30%; note: 0% is about no effect; the text of the record puts the active cut at 80%
Target sequence (Q9GZU1 whole entry, looked up): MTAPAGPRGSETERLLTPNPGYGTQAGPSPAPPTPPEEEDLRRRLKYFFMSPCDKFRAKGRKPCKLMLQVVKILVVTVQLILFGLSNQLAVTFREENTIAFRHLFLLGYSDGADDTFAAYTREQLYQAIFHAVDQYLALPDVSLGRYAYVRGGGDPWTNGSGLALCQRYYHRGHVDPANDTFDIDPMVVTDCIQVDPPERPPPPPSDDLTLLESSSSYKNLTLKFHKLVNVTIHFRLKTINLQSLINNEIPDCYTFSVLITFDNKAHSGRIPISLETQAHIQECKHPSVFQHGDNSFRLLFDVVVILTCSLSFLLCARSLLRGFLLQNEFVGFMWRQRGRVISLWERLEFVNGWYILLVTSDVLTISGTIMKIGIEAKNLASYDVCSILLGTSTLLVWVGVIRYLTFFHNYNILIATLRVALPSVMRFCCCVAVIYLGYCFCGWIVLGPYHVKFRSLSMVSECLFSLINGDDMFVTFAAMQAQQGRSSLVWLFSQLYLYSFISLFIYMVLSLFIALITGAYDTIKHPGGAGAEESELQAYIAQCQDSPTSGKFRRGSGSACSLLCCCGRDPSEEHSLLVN
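Tetracycline-induced TRPML1-DL cells are seeded and incubated overnight before loading with a no-wash Ca2+ dye and quencher. Agonist activity is taken from the 110 s fluorescence read following compound pin-transfer on an FDSS, before EC80 54-4 challenge.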
TRPML1 inh – inhibitors of human TRPML1 channel | Q9GZU1 | TRPML1-inducible cells, Ca2+ dye fluorescence, FDSS; stronger effect = lower value; inhibition of EC80 agonist-evoked calcium signal | activity change, negative = inhibition, % (test concentration not listed) | 390,000 tested, 0.02% active | AID 624415; in the data active means activity change below about -50%; inconclusive means about -30% to -50%; inactive means above about -30%;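 note: stimulus is agonist 54-4 at its EC80 concentration; % is set by controls: 0 for no effect and ±100 for the full control effect; compound concentration not given in the record; the text of the record puts the active cut at -80%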
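Tet-induced TRPML1-DL cells loaded with Ca8 no-wash calcium dye were read kinetically on FDSS. Compound addition was followed by EC80 agonist 54-4 (4 uM final); inhibition was read over 110 s.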
Six1-Eya2 blk – inhibitors of human Six1/Eya2 interaction; activity change, % (no concentration beside the values); AlphaScreen GST-Six1/His-Eya2 binding, biochemical; stronger effect = lower value; control for the full effect not named in the record; 360,000 tested, 0.56% active; Q15475+O00167; in the data active = activity change below about -65%; inconclusive = about -30% to -65%; inactive = above about -30%; note: % is set by controls: 0 for no effect and ±100 for the full control effect; compound concentration not given in the record
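Compounds are tested against tagged Six1 and Eya2 proteins bridged by glutathione donor and nickel acceptor beads; after a one-hour incubation at 37 °C without light, AlphaScreen emission is recorded.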
PINK1 modulator – PINK1 expression modulation; AID 624263; 410,000 tested, 0.2% active; Potency, µM (titrated, usually from 76.6 µM), without a hit: at the highest dose activation (PINK1 increase), hits mostly activators; PINK1 immunofluorescence, high-content cytometry, 24 h; active = well fitted activation curve with a large enough effect; inconclusive = small, poorly fitted or top-dose-only effect; inactive = flat fitted curve, though single readings scatter; cell line not stated here;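 note: potency is the fitted concentration of half-maximal effect; % of control where 0% means no effect; nearly all actives have a fitted effect of over 65% in size; a mitochondrial uncoupler was the plate control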
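Readout is PINK1 immunofluorescence, quantified alongside mitochondrial, cell and nuclear markers by laser-scanning microplate cytometry. Cells from a stable line were exposed to compound titrations (5 concentrations) for 24 hours, with CCCP controls.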
The depositor's hits bear a star; ? = inconclusive; nt = no result given; [ ] = another dose, or the depositor's remark.

[1] CN(CCOc1ccccc1)C(=O)C1CCN(C(=O)c2ccc(F)cc2)CC1
[2] CC1CN(c2ncnc3c2cnn3-c2ccc(Cl)cc2)CC(C)O1 (stereo not drawn)
[3] FC(F)(F)c1ccc(-c2cccc3c2C2CC3CCN2C(=S)NCCc2ccccc2)cc1 (stereo not drawn)
[4] N#CC1C(C#N)N2CCCN2C1c1ccc(Cl)cc1 (stereo not drawn)
[5] CCN(CC)S(=O)(=O)c1cccc(-c2nnc(SCC(=O)c3cc(C)n(C4CC4)c3C)o2)c1
[6] CC1=C(C(=O)Nc2ccc(C)cc2C)C(c2ccccc2)n2nc(SCC(=O)c3ccc(C)cc3)nc2N1 (stereo not drawn)
[7] O=C(COC(=O)COc1ccccc1[N+](=O)[O-])Nc1ccc2c(c1)OCO2
[8] O=C(c1ccccc1)N1CCN(C(=O)C2CC2)CC1
[9] COc1cc(-c2cc(=O)c3c(O)c(OC)c(OC)c(O)c3o2)ccc1O
[10] O=C(Cn1nnc(-c2ccccc2NC(=O)c2ccccc2F)n1)NCc1ccco1
Screen / compound no.	1	2	3	4	5	6	7	8	9	10
CtBP-E1A inh	-4	8	10	4	0	nt	-1	-5	-20	4
D2 ag	-4.5	-0.2	2.2	-0.5	-0.1	nt	-2.7	1.2	8.8	0.4
TRPML1 ag	0.0	-0.8	-0.6	-1.1	-0.2	1.4	0.1	0.3	nt	-0.2
TRPML1 inh	25	-5	nt	8	21	?	-12	3	nt	8
Six1-Eya2 blk	-3	-2	4	-1	3	nt	-3	6	?	0
PINK1 modulator	2.5%	1.4%	2.1%	0.1%	5.8%	0.1%	-0.4%	2.5%	3.4%	6.2%

Reprinted from the part before: 2 compounds, followed by the next part.
[9] COc1cc(-c2cc(=O)c3c(O)c(OC)c(OC)c(O)c3o2)ccc1O
[10] O=C(Cn1nnc(-c2ccccc2NC(=O)c2ccccc2F)n1)NCc1ccco1
[11] COc1ccc(S(=O)(=O)Nc2cccc3cccnc23)c([N+](=O)[O-])c1
[12] COc1ccc(CC2C(=O)OC(C)(C)OC2=O)c(Cl)c1OC
[13] Cc1cc(C)nc(NC2=NCC(=O)N2c2ccccc2)n1
[14] COc1cc(/C=C/C(=O)Nc2nnc(C(C)(C)C)s2)cc(OC)c1OC
[15] O=C(N/N=C/c1ccc([N+](=O)[O-])cc1)c1cc(C2CC2)nc2ccccc12
[16] OCCNc1nc(Nc2ccc(Br)cc2)nc2ccccc12
[17] COc1ccc(-n2c(COc3ccc(C)cc3)nnc2SCc2ccc(C#N)cc2)cc1
[18] CN1C(=O)[C@H]2[C@@H](C3CC3)N3C(=O)CN(Cc4ccccn4)C(=O)[C@@]3(Cc3ccccc3)[C@H]2C1=O
[19] Cc1cc(C(F)F)n2nc(C(=O)Nc3cccc(S(=O)(=O)N4CCOCC4)c3)nc2n1
[20] COc1ccc(C(=O)OCCc2sc[n+](CC(=O)c3ccccc3)c2C)cc1
Screen / compound no.	9	10	11	12	13	14	15	16	17	18	19	20
CtBP-E1A inh	-20	4	nt	10	-3	4	-18	-7	-3	5	-3	-21
D2 ag	8.8	0.4	nt	-6.3	-1.0	1.3	1.2	-0.5	-1.0	1.4	-3.3	-0.8
TRPML1 ag	nt	-0.2	1.3	-0.7	-0.4	1.0	2.9	-0.2	6.1	-0.2	-0.3	-0.1
TRPML1 inh	nt	8	22	-7	-4	-6	-1	0	28	-7	7	3
Six1-Eya2 blk	?	0	nt	-2	7	12	-23	-1	-6	0	-6	-3
PINK1 modulator	3.4%	6.2%	3.4%	2.7%	-1.5%	-1.0%	4.0%	-1.7%	-2.6%[38.3 µM]	-1.2%	0.3%	-0.4%

[21] CC(O)Cn1c(=O)c2c(nc(Br)n2Cc2ccccc2)n(C)c1=O (stereo not drawn)
[22] COc1cc(OC)c(C(=O)OCC(=O)NCC2CCCCC2)cc1OC
[23] COc1ccc(NC(=O)/C=C/c2c(Cl)nc3ccccn23)cc1
[24] CCOC(=O)C1(Cc2ccc(Cl)cc2)CCN(C(=O)C2=NNC(=O)CC2)CC1
[25] CC(=O)C1C(=O)CC(C)(O)C(C(C)=O)C1c1ccccc1 (stereo not drawn)
[26] COC(=O)Nc1ccc(=O)n(Cc2c(Cl)cccc2Cl)c1
[27] CC(C)C(=O)Nc1ccc2nc(SCC(=O)N3CCc4ccccc43)sc2c1
[28] COc1cc(C2c3[nH]c4ccccc4c3CCN2Cc2cn(C)nc2C)ccc1F (stereo not drawn)
[29] COc1ccc(CNC(=O)CSc2nc3cccnc3s2)cc1
[30] COc1ccc(/C=N/NC(=O)c2ccn[nH]2)cc1COc1ccc(Cl)cc1Cl
Screen / compound no.	21	22	23	24	25	26	27	28	29	30
CtBP-E1A inh	0	-2	-23	4	-14	-21	nt	-7	nt	-10
D2 ag	-1.4	-1.0	-0.6	1.3	-4.0	-2.4	nt	4.4	-1.9	0.7
TRPML1 ag	-0.4	-0.3	0.0	0.1	0.3	0.0	-0.1	2.8	-0.7	3.1
TRPML1 inh	-1	12	29	2	-13	-8	17	4	4	8
Six1-Eya2 blk	5	0	-20	5	1	-13	nt	-5	3	-13
PINK1 modulator	-2.9%[38.3 µM]	0.7%	2.2%	0.5%	-1.6%	-0.3%	-0.9%	7.0%	-0.6%	3.1%[38.3 µM]

Three compounds out of the list above, sorted by the value under TRPML1 inh, highest first.
No. | Molecule | TRPML1 inh
30 | COc1ccc(/C=N/NC(=O)c2ccn[nH]2)cc1COc1ccc(Cl)cc1Cl | 8
26 | COC(=O)Nc1ccc(=O)n(Cc2c(Cl)cccc2Cl)c1 | -8
25 | CC(=O)C1C(=O)CC(C)(O)C(C(C)=O)C1c1ccccc1 (stereo not drawn) | -13

The results go on.
[31] Cc1cc(C(=O)Nc2ccc3ccccc3c2)oc1C
[32] Cc1ccc(C2=NN=C(NC(=O)C(F)(F)F)SC2)cc1
[33] O=C(NCC(=O)N1CCN(c2ccccc2O)CC1)c1ccco1
[34] Cc1ccc(C)c(N(CC(=O)NC2CCCC2)C(=O)c2csnn2)c1
[35] O=c1[nH]nc(CSCc2ccccc2Cl)[nH]1
[36] COCCn1c(N)c(NCc2ccccc2)c(=O)n(CC(=O)Nc2cc(C)ccc2C)c1=O
[37] CCc1ccc(N2CC(C(=O)OC)CC2=O)cc1 (stereo not drawn)
[38] COc1ccc2oc(=O)cc(-c3cc4ccccc4o3)c2c1
[39] CC(=O)Oc1ccc2ccc3ccc(C(C)=O)cc3c2c1
[40] COc1ccc(-c2ccc(C(=O)NCc3ccccc3)c3occc23)c(C)c1
Screen / compound no.	31	32	33	34	35	36	37	38	39	40
CtBP-E1A inh	5	-15	-6	-17	13	-2	-12	0	-14	-3
D2 ag	0.6	-11	1.6	-2.1	0.6	-2.9	-1.0	-7.6	-1.2	-4.5
TRPML1 ag	-0.4	-1.2	-0.1	-0.3	0.2	-0.2	-0.8	-0.3	-1.2	0.8
TRPML1 inh	61	4	-14	0	-5	-17	3	-2	1	40
Six1-Eya2 blk	-6	-11	-6	9	12	10	-6	22	-3	-7
PINK1 modulator	2.2%	1.1%	1.3%	-0.3%	-0.5%[38.3 µM]	-0.8%	0.7%	3.4%	-1.3%	-0.3%

[41] COc1ccc(N=C2SC(C(=O)O)CC(=O)N2Cc2ccc(OC)c(OC)c2)cc1 (stereo not drawn)
[42] CCC(=NC)C1=C(O)CC(c2ccccc2)CC1=O (stereo not drawn)
[43] O=C(c1ccco1)c1cn(CC(=O)N2CCCCCC2)c2ccccc12
[44] NC(N)=NCCCC(NC(=O)c1ccccc1)C(=O)Nc1ccc2ccccc2c1 (stereo not drawn)
[45] COC(=O)c1ccccc1NC(=O)Cc1nc(-c2ccc(OC)cc2)no1
[46] COc1ccc(C(=O)NCCNC(=O)c2cnccn2)cc1
[47] CC1CCC2(CC1)NC(=O)N(CC(=O)NC(=O)NC1CCCC1)C2=O (stereo not drawn)
[48] O=C(OCC(=O)c1c[nH]c2ccccc12)c1cccc(O)c1
[49] CCSc1nc(O)c(C2OC(=O)c3c2ccc(OC)c3OC)c(=O)n1-c1ccccc1 (stereo not drawn)
[50] COc1ccc(-c2cc(C(F)(F)F)nc(SCC(=O)NCc3ccc(OC)c(OC)c3)n2)cc1
Screen / compound no.	41	42	43	44	45	46	47	48	49	50
CtBP-E1A inh	-3	-1	-1	-10	nt	-4	9	-2	-1	nt
D2 ag	-1.2	-1.6	0.9	-2.8	nt	-4.5	-1.9	3.5	-1.5	nt
TRPML1 ag	1.1	0.4	-0.2	0.6	1.0	-0.6	-0.2	3.7	-0.7	0.1
TRPML1 inh	4	-1	-5	-21	3	-6	-4	-6	12	-13
Six1-Eya2 blk	0	-6	-10	-5	nt	2	2	-3	1	nt
PINK1 modulator	0.2%[38.3 µM]	0.8%	1.4%	0.4%	2.3%	-0.4%	-1.5%[38.3 µM]	13%	-2.3%	2.7%

[51] Cc1nc(-c2cccc(S(=O)(=O)N3CC(C)CC(C)C3)c2)cs1 (stereo not drawn)
[52] CNC(=S)N1CCN(c2cccc(OC)c2)CC1
[53] Cc1cc(C)c(C#N)c(SCCS(=O)(=O)Cc2ccccc2)n1
[54] O=C(c1cccs1)N1CCCc2cc(NS(=O)(=O)c3ccc(Br)cc3)ccc21
[55] O=C1NC[C@@H](Cc2cccc3ccccc23)N(CC2CCCCC2)C1=O
[56] COc1ccc(-n2c(=S)[nH]c3cc(C(=O)NCCCN4CCCC4=O)ccc3c2=O)c(OC)c1
Screen / compound no.	51	52	53	54	55	56
CtBP-E1A inh	-1	-6	-4	nt	nt	0
D2 ag	-3.8	-1.8	2.1	nt	-0.3	-4.3
TRPML1 ag	1.9	-0.4	2.2	-0.3	-0.1	0.0
TRPML1 inh	0	-19	-11	4	10	2
Six1-Eya2 blk	0	-1	4	nt	-7	10
PINK1 modulator	0.5%	-0.4%	-2.9%[38.3 µM]	0.4%	3.3%	-1.1%

Looked up above:
no. 13 | TRPML1 inh: -4
no. 35 | PINK1 modulator: -0.5%[38.3 µM]

Just TRPML1 inh and CtBP-E1A inh, for 5 of the compounds above:
| # | Molecule | TRPML1 inh | CtBP-E1A inh |
| --- | --- | --- | --- |
| 1 | CN(CCOc1ccccc1)C(=O)C1CCN(C(=O)c2ccc(F)cc2)CC1 | 25 | -4 |
| 9 | COc1cc(-c2cc(=O)c3c(O)c(OC)c(OC)c(O)c3o2)ccc1O | nt | -20 |
| 56 | COc1ccc(-n2c(=S)[nH]c3cc(C(=O)NCCCN4CCCC4=O)ccc3c2=O)c(OC)c1 | 2 | 0 |
| 25 | CC(=O)C1C(=O)CC(C)(O)C(C(C)=O)C1c1ccccc1 (stereo not drawn) | -13 | -14 |
| 5 | CCN(CC)S(=O)(=O)c1cccc(-c2nnc(SCC(=O)c3cc(C)n(C4CC4)c3C)o2)c1 | 21 | 0 |
